Source: PubChem BioAssay (Broad Institute)
A1 apoptosis 2: compounds inhibiting A1, read as caspase activation; MEF A1-2A-BIM cells, caspase-Glo luminescence, 3 h; percent of clofoctol response, DMSO zero; caspase activation, % (test concentration not listed); 24,000 tested, under 10 active; in the data active = caspase activation above about 5.9%;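 also: wells of about 30 µL received 50 nL stock; the first replicate is given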
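Test system – A1-2A-BIM-expressing MEF cells · Input – 2500 cells/well · Medium – RPMI-1640 growth medium with 10% FBS · Compound dosing – 50 nL pinned compound · Timing – 3 h compound exposure at 37 °C · Technique – Caspase-Glo luminescence (DEVD substrate) · Evaluation – Caspase-3/7 activity from luminescence increase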
Active calls of the source: *. An excerpt (hit frequency here may not be typical).

SMILES	A1 apoptosis 2
C[C@@H]1CCCCO[C@@H](CN(C)S(=O)(=O)c2ccccc2)[C@@H](C)CN([C@H](C)CO)C(=O)c2cc(NS(C)(=O)=O)ccc2O1	0.7
C[C@H]1CN([C@@H](C)CO)C(=O)c2cccc(NC(=O)Nc3ccc4c(c3)OCO4)c2O[C@@H]1CN(C)Cc1ccc(Oc2ccccc2)cc1	0.0
C[C@H]1CN([C@@H](C)CO)C(=O)c2cc(NS(=O)(=O)c3cccs3)ccc2O[C@H]1CN(C)S(=O)(=O)c1cn(C)cn1	0.0
COC(=O)c1cn(CC(=O)N2CCN(C)CC2)nn1	-0.8
C[C@H](CO)N1C[C@H](C)[C@@H](CN(C)S(=O)(=O)c2cn(C)cn2)Oc2ccc(NC(=O)CCN3CCOCC3)cc2CC1=O	-0.4
C[C@@H]1CCCCO[C@H](CN(C)C(=O)Nc2ccc(F)cc2)[C@@H](C)CN([C@@H](C)CO)C(=O)c2cc(NC(=O)CCCN(C)C)ccc2O1	-0.3
C[C@@H]1CCCCO[C@H](CN(C)S(=O)(=O)c2ccc(F)cc2)[C@H](C)CN([C@@H](C)CO)C(=O)c2cc(NS(=O)(=O)c3ccccc3)ccc2O1	0.2
C[C@@H]1CCCCO[C@H](CN(C)Cc2ccc3c(c2)OCO3)[C@@H](C)CN([C@@H](C)CO)C(=O)c2cc(NC(=O)NC3CCCCC3)ccc2O1	0.1
C[C@H](CO)N1C[C@H](C)[C@H](CN(C)S(=O)(=O)c2ccccc2)Oc2ncc(-c3cc4ccccc4o3)cc2C1=O	0.0
C[C@@H]1CN([C@H](C)CO)C(=O)Cc2cc(N(C)C)ccc2O[C@@H]1CN(C)C(=O)Nc1ccccc1	-1.2
C[C@H](CO)N1C[C@H](C)[C@H](CN(C)S(=O)(=O)c2cn(C)cn2)Oc2ccc(NC(=O)C3CC3)cc2C1=O	-0.8
C[C@H](CO)N1C[C@H](C)[C@H](CN(C)Cc2ccc(C(=O)O)cc2)Oc2c(NC(=O)Nc3ccc4c(c3)OCO4)cccc2C1=O	-0.4
C=CCN1C(=S)N[C@@H]2c3ccccc3O[C@@]1(C)[C@@H]2CO	1.2
C[C@H](CO)N1C[C@H](C)[C@@H](CN(C)C(=O)CCCN(C)C)OCCCC[C@H](C)Oc2ccc(NC(=O)NC3CCCCC3)cc2C1=O	-1.2
C[C@@H]1CN([C@@H](C)CO)C(=O)CCCn2nncc2CO[C@H]1CN(C)Cc1ccccc1C(F)(F)F	-0.6
C[C@@H]1CN([C@H](C)CO)C(=O)c2cc(NS(=O)(=O)c3ccc(Cl)cc3)ccc2O[C@H]1CN(C)Cc1ccc(-c2ccccc2)cc1	-0.8
Cc1ccc(S(=O)(=O)Nc2ccc3c(c2)CC(=O)N([C@@H](C)CO)C[C@H](C)[C@H](CN(C)S(=O)(=O)c2ccc(Cl)cc2)O3)cc1	0.1
C[C@@H]1CN([C@H](C)CO)C(=O)c2cc(N(C)C)ccc2O[C@@H](C)CCCCO[C@H]1CN(C)C(=O)Nc1cccc2ccccc12	-0.3
Cc1ccc(S(=O)(=O)N(C)C[C@H]2Oc3ccc(NS(=O)(=O)c4cn(C)cn4)cc3CC(=O)N([C@H](C)CO)C[C@@H]2C)cc1	-0.8
C[C@H]1CN([C@@H](C)CO)C(=O)c2cc(NC(=O)Cc3ccccc3)ccc2O[C@@H]1CN(C)C(=O)Nc1ccccc1	1.8
C[C@@H]1CCCCO[C@@H](CN(C)Cc2ccc(Cl)c(Cl)c2)[C@@H](C)CN([C@@H](C)CO)C(=O)c2cc(NC(=O)Cc3ccccc3)ccc2O1	-1.6
C[C@@H]1CN([C@@H](C)CO)C(=O)CCCn2nncc2CO[C@H]1CN(C)C(=O)Nc1ccc(N2CCN(C)CC2)cc1	-0.4
C[C@@H]1CN([C@@H](C)CO)C(=O)c2cccc(NS(=O)(=O)c3ccc(F)cc3)c2O[C@H]1CN(C)C(=O)Nc1ccc2c(c1)OCO2	0.4
Cc1ccc(S(=O)(=O)N(C)C[C@H]2Oc3c(NC(=O)Nc4c(C)noc4C)cccc3C(=O)N([C@@H](C)CO)C[C@@H]2C)cc1	-0.3
COc1ccc(S(=O)(=O)Nc2cccc3c2O[C@H](CN(C)Cc2ccncc2)[C@H](C)CN([C@@H](C)CO)C3=O)cc1	1.6

Overlap with the part before: 3 entries; new compounds follow.
SMILES	A1 apoptosis 2
C[C@@H]1CN([C@@H](C)CO)C(=O)c2cccc(NS(=O)(=O)c3ccc(F)cc3)c2O[C@H]1CN(C)C(=O)Nc1ccc2c(c1)OCO2	0.4
Cc1ccc(S(=O)(=O)N(C)C[C@H]2Oc3c(NC(=O)Nc4c(C)noc4C)cccc3C(=O)N([C@@H](C)CO)C[C@@H]2C)cc1	-0.3
COc1ccc(S(=O)(=O)Nc2cccc3c2O[C@H](CN(C)Cc2ccncc2)[C@H](C)CN([C@@H](C)CO)C3=O)cc1	1.6
Cc1noc(C)c1S(=O)(=O)Nc1ccc2c(c1)CC(=O)N([C@@H](C)CO)C[C@H](C)[C@@H](CN(C)Cc1ccc(-c3ccccc3)cc1)O2	0.1
Cc1noc(C)c1NC(=O)Nc1cccc2c1O[C@H](CN(C)Cc1ccc(C(F)(F)F)cc1)[C@@H](C)CN([C@@H](C)CO)C2=O	1.4
C[C@H]1CN([C@@H](C)CO)C(=O)c2cccc(NC(=O)C3CCCCC3)c2O[C@@H]1CN(C)C(=O)NC1CCCCC1	-0.9
C[C@H]1CN([C@@H](C)CO)C(=O)c2cccc(NS(C)(=O)=O)c2O[C@H]1CN(C)S(=O)(=O)c1ccccc1	-0.5
C[C@H](CO)N1C[C@H](C)[C@@H](CN(C)Cc2ccc(Oc3ccccc3)cc2)Oc2ccc(NC(=O)Nc3cccc4ccccc34)cc2CC1=O	-0.6
C[C@H]1CN([C@@H](C)CO)C(=O)c2cccc(NS(=O)(=O)c3ccccc3)c2O[C@@H]1CN(C)S(=O)(=O)c1ccccc1	-0.6
C[C@@H]1CCCCO[C@@H](CN(C)Cc2ccc(C(=O)Nc3ccccc3N)cc2)[C@@H](C)CN([C@H](C)CO)C(=O)c2cc(NC(=O)c3ccncc3)ccc2O1	1.4
O=C(CCCCCCC(=O)Nc1ccccc1O)N/N=C/c1cccc(O)c1	-0.1
CC(C)NC(=O)Nc1ccc2c(c1)C(=O)N([C@H](C)CO)C[C@H](C)[C@H](CN(C)C(=O)c1ccncc1)OCCCC[C@@H](C)O2	-0.7
C[C@@H]1CCCCO[C@@H](CN(C)Cc2ccc(C(=O)Nc3ccccc3N)cc2)[C@@H](C)CN([C@H](C)CO)C(=O)c2cc(NS(=O)(=O)c3ccc(Cl)cc3)ccc2O1	-1.4
C[C@@H]1CN([C@@H](C)CO)C(=O)c2cc(NC(=O)Nc3ccc4c(c3)OCO4)ccc2O[C@H]1CN(C)S(=O)(=O)c1ccc(F)cc1	0.6
C[C@H](CO)N1C[C@H](C)[C@H](CN(C)CC2CC2)Oc2ccc(N(C)C)cc2CC1=O	1.4
Cc1ccc(S(=O)(=O)Nc2ccc3c(c2)CC(=O)N([C@H](C)CO)C[C@@H](C)[C@H](CN(C)C(=O)Nc2ccc(F)cc2)O3)cc1	3.0
C[C@H](CO)N1C[C@H](C)[C@H](CN(C)C)Oc2ncc(C#CC(C)(C)O)cc2C1=O	0.5
C[C@H](CO)N1C[C@H](C)[C@H](CN(C)Cc2ccc(C(=O)Nc3ccccc3N)cc2)Oc2ccc(NC(=O)CCC(F)(F)F)cc2CC1=O	-0.3
COc1ccc(NC(=O)N(C)C[C@@H]2OCCCC[C@@H](C)Oc3ccc(NC(=O)C4CCCCC4)cc3C(=O)N([C@H](C)CO)C[C@@H]2C)cc1	0.8
C[C@@H]1CCCCO[C@H](CN(C)Cc2ccc(C(F)(F)F)cc2)[C@H](C)CN([C@@H](C)CO)C(=O)c2cc(NC(=O)C3CCCCC3)ccc2O1	0.6
C[C@@H]1CN([C@H](C)CO)C(=O)Cc2cc(NC(=O)CCN3CCOCC3)ccc2O[C@H]1CN(C)C(=O)Nc1ccc(F)cc1	0.6
C[C@H](CO)N1C[C@H](C)[C@H](CN(C)S(=O)(=O)c2cn(C)cn2)Oc2c(NC(=O)C3CC3)cccc2C1=O	0.0
C[C@@H]1CCCCO[C@H](CN(C)Cc2ccc3c(c2)OCO3)[C@@H](C)CN([C@H](C)CO)C(=O)c2cc(NC(=O)c3ccccc3)ccc2O1	0.5
C[C@@H]1CN([C@@H](C)CO)C(=O)CCCn2cc(nn2)CO[C@H]1CN(C)C(=O)Nc1ccnc(N2CCOCC2)c1	0.3
C[C@H](CO)N1C[C@H](C)[C@@H](CN(C)S(=O)(=O)c2ccccc2)Oc2ccc(NS(=O)(=O)c3cccs3)cc2CC1=O	-0.3
Cc1noc(C)c1S(=O)(=O)N(C)C[C@H]1OCc2cn(nn2)CCCC(=O)N([C@@H](C)CO)C[C@H]1C	1.4
Cc1ccc(S(=O)(=O)Nc2ccc3c(c2)CC(=O)N([C@H](C)CO)C[C@H](C)[C@@H](CN(C)Cc2ccc(-c4ccccc4)cc2)O3)cc1	-1.3
Cc1noc(C)c1NC(=O)N(C)C[C@H]1OCCCC[C@@H](C)Oc2ccc(N(C)C)cc2C(=O)N([C@@H](C)CO)C[C@H]1C	-1.0

Random excerpt: three entries already listed, in no set order.
SMILES	A1 apoptosis 2
C[C@@H]1CN([C@H](C)CO)C(=O)Cc2cc(NC(=O)CCN3CCOCC3)ccc2O[C@H]1CN(C)C(=O)Nc1ccc(F)cc1	0.6
Cc1noc(C)c1NC(=O)Nc1cccc2c1O[C@H](CN(C)Cc1ccc(C(F)(F)F)cc1)[C@@H](C)CN([C@@H](C)CO)C2=O	1.4
C[C@@H]1CCCCO[C@@H](CN(C)Cc2ccc(C(=O)Nc3ccccc3N)cc2)[C@@H](C)CN([C@H](C)CO)C(=O)c2cc(NS(=O)(=O)c3ccc(Cl)cc3)ccc2O1	-1.4

New compounds follow:
SMILES	A1 apoptosis 2
C=CCOC(=O)[C@@H]1[C@H]2C(=O)O[C@H](c3ccccc3)[C@H](c3ccccc3)N2[C@H](c2ccc(OCCOC(=O)[C@@H]3C[C@@H]4C(=O)N[C@@H](Cc5ccccc5)C(=O)N4[C@@H]3c3cccc(OCCO)c3)cc2)[C@@]12C(=O)Nc1ccc(I)cc12	0.0
C[C@H](CO)N1C[C@H](C)[C@@H](CN(C)Cc2ccc3c(c2)OCO3)Oc2ccc(NC(=O)C3CCCCC3)cc2CC1=O	-0.1
CC(=O)n1cc([C@@H]2C=C(C(=O)N3CCN(Cc4ccc5c(c4)OCO5)CC3)O[C@H](OCc3ccc(CO)cc3)C2)c2ccccc21	-0.1
C[C@@H]1CN([C@H](C)CO)C(=O)c2cc(NC(=O)Nc3ccc(C(F)(F)F)cc3)ccc2O[C@@H](C)CCCCO[C@H]1CN(C)Cc1ccc(C(=O)O)cc1	-1.0
CC(C)NC(=O)Nc1ccc2c(c1)C(=O)N([C@@H](C)CO)C[C@@H](C)[C@H](CN(C)Cc1ccc(C(=O)O)cc1)OCCCC[C@@H](C)O2	1.0
C[C@H]1CN([C@@H](C)CO)C(=O)c2cc(NS(=O)(=O)c3cn(C)cn3)ccc2O[C@H]1CN(C)C(=O)NC1CCCCC1	1.3
C[C@@H]1CCCCO[C@@H](CN(C)Cc2ccncc2)[C@H](C)CN([C@H](C)CO)C(=O)c2cc(NC(=O)c3ccncc3)ccc2O1	0.0
COc1ccc(CN(C)C[C@@H]2Oc3ccc(NS(=O)(=O)c4ccc(C)cc4)cc3C(=O)N([C@H](C)CO)C[C@H]2C)cc1	-0.5
C[C@@H]1CN([C@@H](C)CO)C(=O)c2cc(NC(=O)Nc3ccccc3)ccc2O[C@@H](C)CCCCO[C@@H]1CN(C)C(=O)Nc1ccc2c(c1)OCO2	0.7
Cc1noc(C)c1S(=O)(=O)Nc1cccc2c1O[C@H](CN(C)C(=O)Nc1ccc(F)cc1)[C@H](C)CN([C@@H](C)CO)C2=O	0.0
CC(C)NC(=O)N(C)C[C@H]1Oc2ccc(NC(=O)Nc3ccc4c(c3)OCO4)cc2CC(=O)N([C@@H](C)CO)C[C@@H]1C	0.8
C[C@@H]1CN([C@@H](C)CO)C(=O)c2cccc(NC(=O)c3cnccn3)c2O[C@H]1CN(C)S(=O)(=O)c1ccc(Cl)cc1	-1.5
CC(C)NC(=O)N(C)C[C@@H]1Oc2ccc(NC(=O)CCCCCC(=O)Nc3ccccc3N)cc2C(=O)N([C@@H](C)CO)C[C@@H]1C	0.7
C[C@@H]1CN([C@H](C)CO)C(=O)c2cc(NC(=O)Nc3ccc(F)cc3)ccc2O[C@@H]1CN(C)Cc1ccc(Cl)c(Cl)c1	0.0
C[C@@H]1CN([C@@H](C)CO)C(=O)c2cc(NC(=O)NC3CCCCC3)ccc2O[C@@H](C)CCCCO[C@@H]1CN(C)S(=O)(=O)c1cn(C)cn1	1.5
C[C@H](CO)N1C[C@H](C)[C@@H](CN(C)C)Oc2c(NS(=O)(=O)c3ccc(Cl)cc3)cccc2C1=O	-0.1
C[C@@H]1CN([C@H](C)CO)C(=O)c2cc(NC(=O)Nc3ccc(F)cc3)ccc2O[C@@H](C)CCCCO[C@@H]1CN(C)C(=O)NC1CCCCC1	1.2
C[C@@H]1CN([C@H](C)CO)C(=O)c2cc(NC(=O)Nc3cccc4ccccc34)ccc2O[C@@H](C)CCCCO[C@H]1CN(C)S(=O)(=O)c1ccc(Cl)cc1	-1.0
